Screening results: PubChem BioAssay, several laboratories
CSC inhib: cancer stem cell viability inhibitors, primary screen, luminescence. cancer stem cell-like cells viability. inhibition, % at 7.5 µM. 300,000 tested, 1.1% active;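 active means mean at 75% or more and at least half the replicates too; inconclusive means mean and replicates disagree; tested in HMLE shEcad cells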;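 further: 0% = median of negative and 100% = median of positive control wells; the first replicate is given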
Yeast UUG start: modulators of yeast start codon fidelity, primary screen, whole organism, S. cerevisiae, single point, plate reader. S. cerevisiae UUG-firefly luciferase reporter, luminescence/redox ratio. activity score, % at 18.7 µM. AID 602363, 2012. 350,000 tested, 0.13% active;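 active means replicate mean at a twofold rise or more, about +100% in these data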;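 further: firefly luciferase made from a UUG start codon reports start codon fidelity; reporter light over untreated wells divided by growth signal over untreated wells; some hits fall short of that in this replicate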
Env fusion inh: inhibitors of HIV-1 Env-driven cell-cell fusion, primary screen, HeLa-JRFL effector, CEM21 target cells, luciferase; AID 651610, 2012; 360,000 tested, 1.1% active; inhibition, % at 12.3 µM;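 active means mean replicate inhibition score of at least 50 and every replicate individually at or above 50; inconclusive means only one of the two criteria met; inactive means mean below 50 and not all replicates reaching 50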;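 further: 0% = plate neutral controls and 100% = maraviroc near 300 nM; one replicate is shown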
eIF4H inh: human eIF4H binding inhibitors, primary screen, translation initiation inhibitor project, biochemical, uHTS, fluorescence polarization | Eukaryotic translation initiation factor 4H (Homo sapiens), Q15056 | eIF4H fluorescence polarization binding assay | inhibition, % at 35 µM | 290,000 tested, 0.94% active;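 active means 50% or more with normal probe brightness, or confirmed in later tests; inconclusive means above 50% with abnormal brightness, or retests that disagree; inactive means below 50% or failed in later tests; about a fifth of its hits are not listed in these tables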;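 further: calls also rest on retests at 20 µM and on dose response follow-up; 0% = protein and probe with vehicle and 100% = probe without protein; strong numbers were not always called active; many hits fall short of the cut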
MT1-MMP act inh: blockers of MT1-MMP proenzyme processing, primary screen, HT1080 RFP-PRO-GFP cells, GFP/RFP fluorescence; GFP/RFP ratio change, % at 20 µM; GFP/RFP ratio fluorescence, overnight; percent of plate control window, DMSO zero; 360,000 tested, 0.061% active;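 active means GFP/RFP ratio change of at least 30% with cell ATP level not reduced by more than half and red fluorescence within 50% of control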; further: strong numbers were not always called active
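Assay system: HT1080 RFP-PRO-GFP cells | Dosing: 20 µM single dose, 1% DMSO | Incubation: Cells overnight before dosing, compound overnight, 37 °C, 5% CO2 | Evaluation: GFP/RFP fluorescence ratio | Control set: DMSO-only wells and HT1080 RFP-L50D-GFP cell wells as references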
PABP polyA inh: PABP poly(A) RNA binding inhibitors, primary screen, biochemical, fluorescence polarization, uHTS. 290,000 tested, 1% active. Polyadenylate-binding protein 1 (Homo sapiens), P11940. inhibition, % at 35 µM. AID 2014, 2009;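 active means 50% or more with normal probe brightness, or confirmed in later tests; inconclusive means above 50% with abnormal brightness, or retests that disagree; inactive means below 50% or failed in later tests; about a fifth of its hits are not listed in these tables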;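 further: calls also rest on retests at 20 µM and on dose response follow-up; controls were probe without protein and protein plus probe with vehicle; some compounds called inactive have numbers as strong as hits; many hits fall short of the cut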
Target sequence (P11940 whole entry, looked up): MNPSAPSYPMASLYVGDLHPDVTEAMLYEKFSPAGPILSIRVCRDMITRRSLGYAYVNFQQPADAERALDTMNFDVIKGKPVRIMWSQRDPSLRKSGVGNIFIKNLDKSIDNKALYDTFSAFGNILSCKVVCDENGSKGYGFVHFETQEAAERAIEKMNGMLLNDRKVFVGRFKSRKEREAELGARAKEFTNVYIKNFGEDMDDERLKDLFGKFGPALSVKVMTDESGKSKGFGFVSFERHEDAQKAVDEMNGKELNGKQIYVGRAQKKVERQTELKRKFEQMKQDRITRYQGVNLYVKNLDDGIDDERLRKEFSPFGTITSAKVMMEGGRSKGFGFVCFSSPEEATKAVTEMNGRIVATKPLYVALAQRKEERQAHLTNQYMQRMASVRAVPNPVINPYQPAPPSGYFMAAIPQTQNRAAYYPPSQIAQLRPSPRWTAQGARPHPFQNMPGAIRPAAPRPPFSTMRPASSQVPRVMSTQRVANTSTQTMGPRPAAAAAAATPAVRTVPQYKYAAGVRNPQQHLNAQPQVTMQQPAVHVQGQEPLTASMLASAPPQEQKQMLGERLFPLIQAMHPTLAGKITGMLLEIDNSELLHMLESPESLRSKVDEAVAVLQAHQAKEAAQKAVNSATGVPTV
Rce1 inh: yeast Rce1p protease inhibitors, primary screen, biochemical, fluorescence, cell-free homogeneous | yeast membranes, quenched prenylated peptide cleavage fluorescence | calls only | 290,000 tested, 0.27% active | AID 2563, 2010;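 active means fall in fluorescence gain of 50% or more versus controls, with final raw signal at or below 3038400; inconclusive means same 50% fall but final raw signal above 3038400; inactive means fall in fluorescence gain under 50%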;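 further: plate controls were neutral control wells for no effect and wells lacking membranes for full effect; tested at 10 µM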
MT1-MMP act inh RFP: further read-out of MT1-MMP act inh, marked with its call; RFP signal change, %; measured here: RFP expression control read;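 0 = vehicle wells; hits needed this value within 50% of zero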
* marks the source's active call; other numbers are inactive results; i = inactive; ? = inconclusive; · = no result given. Some of the compounds tested (hit frequency here may not be typical).

SMILES	CSC inhib	Yeast UUG start	Env fusion inh	eIF4H inh	MT1-MMP act inh	MT1-MMP act inh RFP	PABP polyA inh	Rce1 inh
O=C(Cn1cc(C(F)(F)F)ccc1=O)N/N=C/c1cccc(Cl)c1	1	·	2	-5	1	3	0	i
COc1ccccc1N1CCN(C(=O)CCS(=O)(=O)c2ccc3c(c2)NC(=O)C(C)S3)CC1 (stereo not given)	-4	-9	0	-23	-3	-8	6	i
O=C(O)c1cccc(-n2cccc2/C=C2/SC(=O)N(CC(=O)N3CCCC3)C2=O)c1	·	-10	5	90*	-6	2	74*	i
CCn1c(=O)c2c(nc3n2CCCN3Cc2ccccc2)n(C)c1=O	-9	2	12	-15	3	-1	4	i
COc1ccc(/C=C/c2nc(N)nc(-c3ccccc3O)n2)cc1	-1	4	0	5	-2	0	-2	i
COCc1cc(=O)n2[nH]c(-c3ccc(C)cc3)cc2n1	-4	-10	-35	-6	2	3	-4	i
O=C(CN(C(=O)CCC(=O)Nc1ccccn1)c1cccc(F)c1)NCc1ccc2c(c1)OCO2	-20	-9	-6	-7	4	6	4	i
S=c1[nH]nc(Nc2ccc(Cl)cc2)s1	-6	·	-25	2	-1	0	-2	i
Cc1sc2ncnc(OCC(=O)N3CCN(C(=O)c4ccco4)CC3)c2c1C	·	7	-11	-1	-3	-6	2	i
CC(c1nnc(SCC(=O)c2c(N)n(C3CC3)c(=O)[nH]c2=O)n1-c1ccc(F)cc1)N(C)C (stereo not given)	·	-7	3	·	4	3	·	·
O=C(OCC(=O)N1CCCC1)c1c2c(nc3ccccc13)CCCCC2	-13	·	10	-2	-6	-3	-2	?
O=c1c(C=Nc2ccc(Cl)cc2)c[nH]n1-c1cccc(Cl)n1	18	-10	0	-1	7	3	-8	i
O=C(Nc1ccc(Cl)cc1)c1cnc(-c2ccccc2)nc1-c1ccccc1	10	-22	-14	-7	0	1	4	i
Cc1cccc(NS(=O)(=O)c2cccc(C(=O)NCC(c3ccco3)N(C)C)c2)c1 (stereo not given)	-8	-9	4	·	5	-1	·	i
CCN(CC(=O)NCc1ccc(Cl)cc1)C(=O)COc1cccc(C(F)(F)F)c1	-2	·	2	·	4	-3	·	i
COc1ccccc1-c1nc(C#N)c(N2CCCCCC2)o1	-5	-10	40	-7	-5	-2	-8	i
Cc1cnc(SCCc2ccncc2)nc1C	9	·	·	5	·	·	14	i
O=C1NN(c2cccc(Br)c2)C(=O)/C1=C\c1ccccc1	109*	-15	4	10	1	6	18	i
O=C(CSc1cccc2cccc(Cl)c12)NCc1cccs1	-4	·	10	0	-4	-3	1	i
COc1cc(NC(=O)CSc2nc(=O)n(CCN3CCOCC3)c3c2CCC3)cc(OC)c1	-11	8	0	·	-1	-1	·	i
CCn1nnc(NC(=O)c2ccc(-c3ccccc3[N+](=O)[O-])o2)n1	-5	-1	-15	2	1	2	19	i
CCOc1ccc(Nc2nc3ccccc3c(=O)s2)cc1	-28	-16	2	-13	2	3	-8	i
CC(C)NS(=O)(=O)c1ccc(NC(=O)C(C)OC(=O)CCC(=O)c2cccs2)cc1 (stereo not given)	6	-3	·	·	-4	1	·	·
CCn1c(C)cc(/C=C2/SC(=O)N(C(C)C(=O)OC)C2=O)c1C (stereo not given)	-7	-6	-32	45	3	-6	9	i
CC(C)CCNC(=O)CCc1nnc(COc2ccccc2)o1	·	·	-12	-11	-2	-2	-10	i
COc1ccc(/C=C/C(=O)Nc2ccc(N3CCOCC3)cc2)cc1	11	·	·	5	6	3	-3	i
CCOc1cccc(C(=O)Nc2cccc(-c3nnc(-c4ccc(C)cc4)o3)c2)c1	69	-13	·	4	-5	-8	-8	i
O=C(Cc1nn[nH]n1)c1ccccc1O	-1	·	12	6	2	4	-3	i
Cc1cc(C(=O)NCc2ccco2)c2ccccc2n1	·	-20	-14	-4	-5	-2	-7	i
CC(C)(C)S(=O)(=O)c1cnc(-c2cnccn2)nc1N	3	-14	10	6	-7	-5	-4	i
c1ccc([C@H]2CNCCN2CCc2cccc3ccccc23)cc1	25	0	9	·	-5	5	·	·
O=C(COC(=O)CSc1ccccc1)NC1CCS(=O)(=O)C1 (stereo not given)	·	-5	-5	·	-5	5	·	·
Cn1ncc([N+](=O)[O-])c1C(=O)N1CCOCC1	-1	-21	-43	-4	-2	-2	-2	i
CN(Cc1nc(-c2ccccn2)no1)S(=O)(=O)c1ccccc1	-4	66	·	6	1	4	-12	·
Cc1ccnc(N2CCCC(C(=O)Nc3cc(F)ccc3C)C2)n1 (stereo not given)	-3	-7	14	-4	3	-2	6	i
O=C(CCC(=O)N1CCCC1)Nc1nnc(C2CCCCC2)s1	-6	-11	-72	1	-6	-5	-4	i
CCN(CC(=O)NC(C)C)C(=O)c1ccc(S(=O)(=O)N(C)c2ccccc2OC)cc1	-10	-20	·	-1	-3	0	0	i
COc1ccccc1NC(=O)c1sc2ncn(CC(=O)N3CCC(C)CC3)c(=O)c2c1C	-6	-8	0	-8	3	-3	1	i
COc1ccc(N2CCN(C(=O)C3CCN(S(=O)(=O)c4ccccc4)CC3)CC2)cc1	-2	·	0	3	1	0	-4	i
CC(C)(C)c1ccc(C(=O)N2CCC(C(=O)NC3CCCCCC3)CC2)cc1	·	-17	-4	-6	5	-2	-2	i
O=C(C1CCN(S(=O)(=O)c2ccc(Br)cc2)CC1)N1CCOCC1	-1	-1	·	-5	-2	-5	3	i
O=C(CSc1nnc(Cn2c(=O)sc3ccccc32)n1CCc1ccccc1)N1CCCC1	-5	10	-9	-3	0	0	-4	i
N#Cc1ccccc1Sc1ccccc1C(=O)OCC(=O)NC1CCCCC1	-8	-7	11	-5	-3	-4	-2	i
CSC1=NCCN1C(=O)Cc1cccc2ccccc12	-8	-17	-2	-3	4	6	-2	i
NNc1ccc(Cl)c(C(=O)O)c1	-13	9	-11	0	-2	3	12	i
C=CC[C@]12CCc3sccc3C1N(c1ccc(C(=O)OCC)cc1)C2=O (stereo not given in full)	1	-7	16	·	2	-6	·	·
CCCCNC(=O)Nc1ccon1	·	37	i	0	-4	0	-3	i
COc1ccc(-c2noc(N3CCC(C(=O)NCCCN4CC(C)CC(C)C4)CC3)n2)cc1 (stereo not given)	-4	-20	6	-8	1	1	-15	i
C/C(=N/OC(=O)c1ccc(C)cc1)c1ccc(N2C(=O)C3CCCCC3C2=O)cc1 (stereo not given)	-16	-14	·	2	1	11	0	i
CCC[N+]1(CC#CCC(c2ccccc2)c2ccccc2)CCCCC1	34	-3	74*	-6	1	-34	-4	i
Cn1c(=O)[nH]c(=O)c2c1nc(N1CCCCC1)n2C/C=N/Nc1ccc(C(=O)O)cc1	0	-10	-34	-14	-6	-5	3	i
COC(=O)CCN(C(=O)c1cccc(OC(C)=O)c1)c1ccccn1	·	-10	-93	-1	-2	6	-3	i
COc1ccc(N2CCN(S(=O)(=O)c3ccc4c(c3)OCCO4)CC2)cc1	-22	3	-13	-6	0	3	-10	i
COc1ccc2[nH]c3c(c2c1)CCN1C(=O)C(CC(=O)NC/C=C(\C)CCC=C(C)C)C[C@H](C(=O)N2CCOCC2)[C@@]31CCC1CCCC1 (stereo not given in full)	·	-10	-65	·	-1	-1	·	·
O=C(CCC(=O)Nc1ccc(F)cc1)N/N=C/c1cccc(Br)c1	-6	-16	16	-2	-1	1	-11	i
CC(C)(C)c1ccc(N2C(=N)SCC2=O)cc1	4	·	-4	-1	-2	-4	11	·
COc1ccc(S(=O)(=O)N(C(C)=O)c2ccc3oc(=O)sc3c2)cc1	-9	-4	-29	-1	12	4	6	i
CCOC(=O)N1CCC(NC(=O)c2cc3c(=O)n(C)c4ccccc4c3n2C)CC1	0	2	6	-8	8	3	-18	i
CCN(CC)C(=O)c1cc(-c2ccc(Br)cc2)on1	8	-13	-122	1	-8	-2	0	i
COc1ccc(CN(C(=O)COc2ccccc2)c2ccccc2C(=O)O)cc1	-35	-9	9	-8	3	2	-8	i

New compounds follow
SMILES	CSC inhib	Yeast UUG start	Env fusion inh	eIF4H inh	MT1-MMP act inh	MT1-MMP act inh RFP	PABP polyA inh	Rce1 inh
CCCC(=O)N1CCC1(C)C(=O)NS(=O)(=O)c1ccc(Cl)cc1 (stereo not given)	·	-29	1	·	0	7	·	·
O=C(N/N=C/c1ccco1)C1(O)c2ccccc2-c2ccccc21	-5	-16	4	-10	2	0	2	i
COc1ccc2occ(C(=O)c3ccc(N=C(C)N(C)C)cc3)c2c1	-1	-9	·	-3	-3	-6	5	i
CCOC(=O)N1CCC(N2Cc3cccc(C(=O)N4CC(C)CC(C)C4)c3C2=O)CC1 (stereo not given)	23	·	12	11	3	5	2	i
CC(=O)Nc1cc(C(F)(F)F)ccc1OCC1CCCO1 (stereo not given)	-6	1	·	0	2	-2	-6	i
Cc1cc(-c2nc3ncccc3o2)ccc1NC(=S)NC(=O)C(C)C	-3	·	2	10	-5	-5	-6	i
COc1ccc(NC(=O)COC(=O)C2CCN(C(=O)c3ccc(Cl)cc3)CC2)c([N+](=O)[O-])c1	-2	11	6	·	0	-1	·	·
COc1cc(C(C)=O)ccc1OCC(=O)Nc1cc(S(=O)(=O)N2CCOCC2)ccc1N1CCCC1	·	7	-3	·	0	-1	·	·
CCn1cnc2cc(NS(=O)(=O)c3ccc(C)cc3)ccc21	1	-11	4	0	1	1	-6	i
O=C(Cn1cc[n+](CC(=O)c2ccc(Cl)cc2Cl)c1)c1ccc(Cl)cc1Cl	14	-9	15	-7	-3	-9	-26	i
O=C(Nc1ccccc1C(=O)N1CCCC1)C1CCN(c2ncccn2)CC1	·	11	-68	-4	1	0	0	i
COC(=O)CCSC(=S)N1CCOCC1	-6	-7	-18	-5	2	6	6	i
Cc1cc(C(=O)N/N=C2\CCCC(=O)C2)c(C)n1-c1ccccc1	·	-21	-14	16	3	1	0	i
O=C(c1ccccc1)c1nn(-c2ccccc2)c2nnc(Cc3ccccc3)c(=O)n12	-9	-4	-99	2	-3	-4	-10	i
COC(=O)c1ccc(CNC(=O)COc2ccccc2Br)o1	6	-1	·	1	2	1	-2	i

Entries of single compounds, quoted from the list.
O=C(c1ccccc1)c1nn(-c2ccccc2)c2nnc(Cc3ccccc3)c(=O)n12 as listed: CSC inhib = -9; Yeast UUG start = -4; Env fusion inh = -99; eIF4H inh = 2; MT1-MMP act inh = -3; MT1-MMP act inh RFP = -4; PABP polyA inh = -10; Rce1 inh = i
O=C(N/N=C/c1ccco1)C1(O)c2ccccc2-c2ccccc21 as listed: CSC inhib = -5; Yeast UUG start = -16; Env fusion inh = 4; eIF4H inh = -10; MT1-MMP act inh = 2; MT1-MMP act inh RFP = 0; PABP polyA inh = 2; Rce1 inh = i

Continued.
SMILES	CSC inhib	Yeast UUG start	Env fusion inh	eIF4H inh	MT1-MMP act inh	MT1-MMP act inh RFP	PABP polyA inh	Rce1 inh
CCN(CC)CCCNC(=S)N(CCCO)Cc1cc2cc3c(cc2[nH]c1=O)OCO3	-15	-25	-71	4	-1	4	-9	i
O=C(Cc1ccccc1)Nc1cccc(NC(=O)c2ccccc2)c1	?	-10	2	-9	2	-1	-1	i
Cn1c(-c2ccccc2)nc2cnccc21	-11	2	-63	0	2	4	5	i
Clc1ccc(Cl)c(OCCN2CCOCC2)c1	18	-33	-106	-3	4	4	6	i
